# HNF4A DNA FP: change in binding of human HNF4A to DNA, primary screen, biochemical, fluorescence polarization, FITC-DNA | Hepatocyte nuclear factor 4-alpha (Homo sapiens), P41235 | 1 h | activity change, % at 10 µM | 360,000 tested, 0.3% active | AID 1224865, 2016; in the data active means activity change above about 30%, passing the limit was not always enough;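 further: controls were the assay level and a saturating level of protein; the project sought stronger binding though the title names inhibitors; some compounds called inactive have numbers as strong as hits; positive values seem to mean higher polarization but the record does not say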
# B2AR ag: beta2AR agonists driving receptor internalization, primary screen, cell-based, FAP fluorogen, flow cytometry | Beta-2 adrenergic receptor (Homo sapiens), P07550 | Am2.2-beta2AR cells; reference of the scale not given here | response, % (no concentration beside the values) | 340,000 tested, 0.43% active | AID 504454, 2011;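 active means response above a set limit, near 3 SD of response in nonfluorescent compounds, cut at about 42% in these data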;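 further: stock transfer was 100 nL into about 11 µL; a reference agonist was the positive control; negative values mostly stem from fluorescent compounds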
# Target sequence (P07550 whole entry, looked up): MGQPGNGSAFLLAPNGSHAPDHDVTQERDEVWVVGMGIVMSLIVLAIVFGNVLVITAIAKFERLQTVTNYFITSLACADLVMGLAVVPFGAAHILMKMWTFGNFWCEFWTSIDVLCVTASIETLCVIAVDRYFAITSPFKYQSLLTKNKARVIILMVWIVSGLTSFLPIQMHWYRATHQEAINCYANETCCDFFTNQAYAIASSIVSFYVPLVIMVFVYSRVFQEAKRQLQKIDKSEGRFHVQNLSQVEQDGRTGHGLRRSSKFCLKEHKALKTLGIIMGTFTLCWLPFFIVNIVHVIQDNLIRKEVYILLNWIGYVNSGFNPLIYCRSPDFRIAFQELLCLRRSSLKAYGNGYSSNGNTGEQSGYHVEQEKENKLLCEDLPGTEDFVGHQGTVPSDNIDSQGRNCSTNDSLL
# FGF22 binding: binders of human FGF22 protein, primary screen, FGF22 synaptogenesis inhibitor project, biophysical, thermal shift, single point; Fibroblast growth factor 22 (Homo sapiens), Q9HCT0; recombinant FGF22 thermal shift, SYPRO orange fluorescence; percent of sucrose octasulfate shift, DMSO zero; calls only at 9.99 µM; 340,000 tested, 1.5% active;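 active means melting point raised past a set limit in the mean and every replicate; three in four hits are not shown here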
# Target sequence (Q9HCT0 whole entry, looked up): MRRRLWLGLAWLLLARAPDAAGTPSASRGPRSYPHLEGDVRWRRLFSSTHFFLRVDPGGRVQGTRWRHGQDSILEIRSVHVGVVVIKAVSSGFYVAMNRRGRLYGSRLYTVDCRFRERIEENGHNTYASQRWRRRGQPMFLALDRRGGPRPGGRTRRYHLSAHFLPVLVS
# Ecoli growth: E. coli growth inhibition, primary screen, OD600; Escherichia coli growth, 23 h; stronger effect = lower value; 330,000 tested, 0.21% active; OD600 absorbance (test concentration not listed);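 active means OD600 absorbance below the run mean of sample wells minus 3.6 SD, in any replicate, cut at about 0.56 in these data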;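 further: stock transfer was 300 nL into about 60 µL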
# LANA-H2B inh: blockers of LANA interaction with H2A/H2B – biochemical, FP readout, HTS, primary screen. Protein LANA1 (Human herpesvirus 8 type P (isolate GK18)), Q9QR71. cell-free LANA-H2A/H2B peptide, fluorescence polarization. inhibition, % (no concentration beside the values). 320,000 tested, 0.6% active; in the data active means inhibition mostly above about 10%, no sharp cut-off; inactive means mostly below about 6.7%;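 further: stock transfer was 7.5 nL into about 10 µL; 0% = median of vehicle wells and 100% = median of positive control wells; one replicate is shown; the record names a cut of 25% in any replicate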
# ALR inh: inhibitors of human ALR sulfhydryl oxidase, primary screen, biochemical, H2O2 detection, HRP-luminol luminescence, single point | inhibition, % (no concentration beside the values) | AID 485317, 2010 | 290,000 tested, 3.8% active | purified ALR, DTT oxidation;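 active means mean and each replicate at 75% or more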;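 further: stock transfer was 7.5 nL into about 7.5 µL; 0% = neutral wells and 100% = wells with inactivated enzyme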
# Target sequence (P55789 whole entry, looked up): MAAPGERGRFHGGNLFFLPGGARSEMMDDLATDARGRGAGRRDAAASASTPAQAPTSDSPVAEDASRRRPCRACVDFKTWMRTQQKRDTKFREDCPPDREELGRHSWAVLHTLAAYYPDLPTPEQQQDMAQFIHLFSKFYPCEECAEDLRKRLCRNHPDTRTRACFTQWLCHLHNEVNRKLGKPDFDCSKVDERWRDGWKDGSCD
# UCH37 inh: inhibitors of human UCH37 deubiquitinase, primary screen, biochemical, Ub-AMC cleavage, fluorescence; purified proteasome/UCH37; Ubiquitin carboxyl-terminal hydrolase isozyme L5 (Homo sapiens), Q9Y5K5; 330,000 tested, 0.33% active; inhibition, % (concentration not given with the values);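 active means mean of two replicates above 20%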;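 further: 0% = compound-free wells with enzyme and 100% = wells lacking proteasome; stock transfer was 100 nL into about 20 µL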
#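 Signal – fluorescence, ex 355 nm, em 460 nm · System – Proteasome-bound UCH37 · Input – 0.15 nM proteasome as dispensed · Timing – 30 min preincubation with enzyme, 25 min cleavage at room temperature · Read-out basis – percent inhibition of cleavage signal versus uninhibited and no-proteasome wells · Medium – Tris-HCl pH 7.4 with ATP-MgCl2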
# Starred values were filed as active, the others as inactive; i = inactive; . = not tested or not shown; + = active, no number. These rows are one share of the data (hit frequency here may not be typical).
# Sequence of screens: HNF4A DNA FP, B2AR ag, FGF22 binding, Ecoli growth, LANA-H2B inh, ALR inh, UCH37 inh
- COc1cccc(N=C(N)N=C(N)N)c1
    -2.7, 4.8, i, 0.606, -3.4, -10.2, 0.6
- O=C(NCc1ccccc1Cl)c1ccc(S(=O)(=O)NCc2ccco2)cc1
    1.2, 2.5, i, 0.689, ., ., 6.1
- Cc1ccc(S(=O)(=O)/N=S(/c2ccccc2)C(C)C)cc1 (centres undefined)
    5.4, -2.1, i, 0.714, 3.2, 65.5, 4.8
- CCCCCN1CC(O)=C(c2ccccc2)C1=N
    -0.1, -7.5, ., 0.667, -0.9, ., 1.3
- NCCc1nc(-c2ccccc2)cs1
    -0.7, 6.9, i, 0.668, -6.5, 8.3, 0.7
- O=C(Nc1nc(=O)c2ccccc2s1)c1ccccc1
    2.9, -0.4, ., 0.698, -4.2, -1.4, 4.3
- CCS(=O)(=O)c1ccc(-c2cccc(NC(=O)c3ccco3)c2)nn1
    2.2, -5.3, i, 0.619, -1.2, -1.6, 2.5
- N#Cc1cccc(NC(=O)Cc2ccccc2)c1
    0.1, 4.5, i, 0.689, 1.6, 11.8, 4.3
- COC(c1ccccc1)c1nc2ccccc2[nH]c1=O (centres undefined)
    0.2, -7.2, i, 0.713, -2.3, ., -56.7
- O=C(Cc1c2ccccc2nc2ccccc12)c1ccccc1
    -1.1, -0.7, ., 0.705, 7.5, -21.4, -8.1
- Cc1noc2c1C(c1ccc(N(C)C)cc1)C1=C(CC(C)(C)CC1=O)N2 (centres undefined)
    1.8, 4.7, ., 0.712, 4.9, 98.4*, 1.5
- CCc1ccc(NC(=O)NCc2cccnc2)cc1
    2.0, -3.2, i, 0.701, 2.7, -20.0, 3.4
- CCOc1ccc2nc(SCC(=O)NC(=O)C(C)C)sc2c1
    0.8, 10.9, ., 0.716, ., ., -2.5
- CN(C(=O)COC(=O)c1ccc(Cl)nc1)C1CCS(=O)(=O)C1 (centres undefined)
    2.0, 4.4, i, 0.722, 3.9, -9.7, -1.5
- C[C@]12CCC3C(CC=C4C[C@@H](O)CC[C@@]43C)C1CCC2[C@]1(C)CCC(=O)O1 (some centres undefined)
    -3.1, 1.2, i, 0.706, -8.3, -4.4, 2.8
- Cc1cc2nc(NCCCO)n(CC(=O)c3cc(C(C)(C)C)c(O)c(C(C)(C)C)c3)c2cc1C
    3.0, 27.8, i, ., 2.7, ., .
- COc1ccccc1C(=O)Nc1nnc(S(=O)(=O)N2CCC(C)CC2)s1
    2.0, -0.5, i, 0.64, 3.7, -1.1, 0.1
- CC(=O)c1sc2c(c1OC(=O)c1ccc(Cl)cc1Cl)c(=O)n(-c1ccccc1)c(=S)n2-c1ccccc1
    4.0, 0.1, i, 0.652, -3.3, 5.3, 10.5
- O=C(COc1ccc2ccc(=O)oc2c1)Nc1ccc(N2CCOCC2)cc1
    3.4, 4.2, ., 0.736, -2.6, 2.2, -17.5
- COc1ccc(C=C(C(C)=O)C(C)=O)cc1OC
    1.1, 7.1, ., 0.694, -0.1, ., 3.3
- COc1cccc(C(=O)NCc2n[nH]c(=S)n2-c2cccc(C)c2)c1
    -0.1, 4.3, i, 0.658, 1.2, 18.2, -0.7
- C=CCn1c(SC(C)C(=O)NCc2ccc3c(c2)OCO3)nnc1C1CCCCC1 (centres undefined)
    -2.4, -1.6, ., 0.727, -4.9, 0.4, 5.2
- CNC(=O)CN(c1cc(OCCOC)c(Cl)cc1Cl)S(=O)(=O)c1ccc(OC)cc1
    -0.4, -8.0, i, 0.679, 2.3, -2.5, 1.3
- Cc1ccc(CNc2c(C=O)c(=O)[nH]c3ccccc23)cc1
    2.4, -6.8, i, 0.647, -2.3, -2.4, 3.5
- Cc1ccc(-c2nc(CN3CCN(c4cnccn4)CC3)c(C)o2)o1
    1.7, 9.1, i, 0.695, 1.6, -4.8, -13.9
- Cc1onc(-c2c(F)cccc2Cl)c1C(=O)OCC(=O)NC(c1ccccc1)c1ccccc1
    -2.1, 5.3, ., 0.744, -0.7, -7.6, 3.0
- COc1ccc(/C=N\NC(=O)c2ccc(-c3ccccc3)cc2)c(OC)c1OC
    -1.8, -1.5, i, ., -2.5, -13.2, .
- COc1ccc(CN2CCN(C(=O)c3cccnc3)CC2)cc1Br
    -0.8, -0.7, ., 0.704, -1.5, -7.7, 2.8
- Cc1ccc2nc(C)c(CN3CCN(c4ccc([N+](=O)[O-])cc4Cl)CC3)n2c1
    2.4, -14.0, i, ., 0.4, -1.8, .
- CC(C)Sc1nnc(NC(=O)c2ccco2)s1
    10.3, -2.4, i, 0.704, -0.7, -4.0, 4.8

# Grouped by structure: the entries above containing an aryl thioether with sulfur outside any ring
# Sequence of screens: HNF4A DNA FP, B2AR ag, FGF22 binding, Ecoli growth, LANA-H2B inh, ALR inh, UCH37 inh
- CCOc1ccc2nc(SCC(=O)NC(=O)C(C)C)sc2c1
    0.8, 10.9, ., 0.716, ., ., -2.5
- C=CCn1c(SC(C)C(=O)NCc2ccc3c(c2)OCO3)nnc1C1CCCCC1 (centres undefined)
    -2.4, -1.6, ., 0.727, -4.9, 0.4, 5.2
- CC(C)Sc1nnc(NC(=O)c2ccco2)s1
    10.3, -2.4, i, 0.704, -0.7, -4.0, 4.8

# Other compounds
# Sequence of screens: HNF4A DNA FP, B2AR ag, FGF22 binding, Ecoli growth, LANA-H2B inh, ALR inh, UCH37 inh
- CCOc1ccccc1Nc1nc(N)nc(CN2CCCCC2C)n1 (centres undefined)
    -1.4, -6.5, i, 0.657, -0.3, 0.6, -0.2
- COc1ccc2cc(Br)ccc2c1CC(=O)NC(C)(C)C
    -1.9, -8.3, ., 0.692, -8.8, -13.0, 4.6
- COc1ccc(C2=NOC(C(=O)O)C2)cc1 (centres undefined)
    -2.9, -4.5, ., 0.673, 10.6, -7.8, 4.8
- COc1ccccc1NC(=O)c1cnc(SCC(=O)NCCc2ccccc2)n(C)c1=O
    1.3, 0.6, i, 0.65, -0.4, -3.8, -90.3
- CN1CCN(C(=O)CCc2ccc(S(=O)(=O)NC3CCCCC3)cc2)CC1
    3.4, 3.0, i, 0.702, -1.5, -1.8, 2.2
- CC(=O)Nc1ccc(C(=O)COC(=O)C2CC3CCCC(C2)C3=O)cc1 (centres undefined)
    0.4, -2.7, i, 0.703, 1.1, -5.3, 3.7
- COc1ccc(CC(=O)n2[nH]c(=O)c3ccccc3c2=O)cc1OC
    -1.6, 12.8, i, 0.703, 0.6, 4.5, 4.3
- CCCNC(=O)C1CCN(S(=O)(=O)c2ccc3c(c2)OCCO3)CC1
    5.6, -2.3, ., 0.657, -0.7, -1.9, 1.3
- Cn1c(CNC(=O)c2cccs2)nnc1SCC(=O)Nc1ccccc1
    -2.2, -1.7, ., 0.666, 4.2, -2.4, 4.2
- COCCCNCC(O)COc1cccc2[nH]c(C)cc12 (centres undefined)
    -4.7, -17.2, +, 0.726, 0.9, 30.2, 3.5
- COc1ccc(Cl)cc1C(=O)Nc1cccnc1Cl
    -4.0, 6.4, i, ., 5.9, 4.2, .
- O=C(NNC(=S)Nc1ccccc1C(F)(F)F)C1CC1
    -4.9, -9.4, i, 0.703, -2.1, 19.9, 1.7
- COc1ccc(C2(C(=O)NCCCN(C)C)CCOCC2)cc1
    0.4, 14.4, i, 0.7, 0.5, 16.4, 5.3
- COc1ccc(/C=N/N(C(C)=O)c2nc(-c3ccc(C)cc3)cs2)cc1
    1.2, -8.2, ., ., -2.5, -5.4, .
- CCCCN(C)S(=O)(=O)c1ccc(C(=O)Nc2nnc(C3=COCCO3)o2)cc1
    -2.5, 1.7, i, 0.702, -0.5, 91.1*, 1.7
- COc1ccc(NC(=O)CSc2nc3ccccc3nc2N2CCCC2)cc1Cl
    4.1, 1.0, i, 0.824, 3.0, -3.1, -3.2
- COC(=O)C1(CC2CC(c3ccccc3)=NO2)CCN(C(=O)OC(C)(C)C)CC1 (centres undefined)
    -0.5, -3.1, i, 0.691, 10.3, -14.9, -0.8
- CSCCC(NC(=O)COc1ccccc1)C(=O)OCC(=O)c1ccccc1 (centres undefined)
    -3.7, 3.3, i, 0.722, 12.3, -9.5, 1.4
- O=C(CN1C(=O)c2ccccc2S1(=O)=O)NCCSC1CCCCC1
    3.0, -2.5, ., 0.725, 2.3, -4.9, 6.5
- O=C1C(Cl)=C(NCCc2ccccc2)C(=O)N1CCc1ccccc1
    5.5, -0.5, ., 0.714, 1.0, 1.9, -49.9
- CN(C)S(=O)(=O)c1ccc(/C(O)=C2/C(=O)C(=O)N(Cc3cccnc3)C2c2ccncc2)cc1 (centres undefined)
    3.3, -0.8, ., 0.622, -1.6, -4.9, 11.6
- Cc1ccc(OCC(=O)N2CCCCCC2)c(C)c1
    3.6, -4.6, i, 0.672, 2.6, -20.0, 0.5
- NC(=O)c1cccnc1Oc1ccc(Cl)cc1Cl
    5.0, 8.0, i, 0.571, 3.7, -4.4, 2.9
- Cc1ccc(-c2csc(NCCn3c(C(F)(F)F)nc4ccccc43)n2)cc1
    4.5, -7.9, i, 0.824, -3.9, 4.5, 1.1
- C#CCOCCOCCOCCNc1nc(N2CCN(C(=O)[C@H](Cc3ccc(O)cc3)n3cc([C@@H](N)C(C)CC)nn3)CC2)nc(N2CCN(C(=O)[C@H](CCCCN)n3cc([C@@H](N)CO)nn3)CC2)n1 (some centres undefined)
    4.4, 9.7, ., ., -1.4, -1.8, 2.6
- COCCn1c(-c2ccc(C#N)cc2)nc2c1c(=O)[nH]c(=O)n2Cc1ccccc1
    0.9, -9.6, i, 0.639, -1.8, -13.8, -256.8
- Cc1ccc(C2NC(=O)c3ccccc3O2)cc1 (centres undefined)
    -5.8, -6.1, i, 0.693, 3.9, 0.0, 2.2
- FC(F)(F)c1ccc(N2CCN(c3ncnc4c3nnn4Cc3ccccc3)CC2)nc1
    -2.5, -14.3, ., 0.712, -2.3, 0.0, -0.9
- O=C1CC(c2nc3ccccc3[nH]2)CN1c1cccc(C(F)(F)F)c1 (centres undefined)
    1.2, -14.6, i, 0.697, -2.9, 0.5, 4.1
- COCCn1c(C)cc(C(=O)COc2nc3ccccc3nc2C)c1C
    -0.1, 2.6, ., 0.733, 0.2, 0.3, 4.6
- CC1(C)CC(C)(O)P(=O)(c2ccccc2)O1 (centres undefined)
    -0.5, 16.3, ., 0.71, -1.1, 5.7, 1.6
- CCN1C(=O)[C@H]2[C@H]3CN=C(SCc4ccc(Cl)cc4)N3[C@@](CC)(C(=O)OC)[C@H]2C1=O
    -2.1, 3.9, i, 0.657, ., ., -0.1
- O=C(N/N=C/c1ccccn1)c1ccncc1
    1.8, -9.0, i, ., 2.8, ., .
- Cc1cccc(C=Nc2ccc3c(c2)oc2ccccc23)c1O
    0.7, -2.3, i, 0.672, -1.4, -5.3, 4.5
- O=S(=O)(c1cccs1)N1CCN(CCc2ccccc2)CC1
    4.3, -0.3, i, 0.649, -3.6, -0.4, 0.5
- CC(C)NC(=O)C(OC(=O)c1ccccc1)C(OC(=O)c1ccccc1)C(=O)O (centres undefined)
    3.6, 10.7, ., 0.673, 2.9, -5.9, 2.1
- CC1(C)Cc2c(sc(NC(=O)c3ccc4c(c3)OCCO4)c2C(N)=O)C(C)(C)N1
    1.3, 8.4, i, 0.711, -4.2, 2.2, -3.6
- COc1ccc(-c2[nH]c3ccccc3c2SCCNC(=O)c2ccccc2)cc1
    2.8, 11.9, i, 0.76, -3.0, 32.4, -4.2
- CCn1c(=O)[nH]c2ccccc2c1=O
    -0.5, -1.3, ., 0.677, -2.7, 13.1, 0.6
- CN1CCN(Cc2nc(Cc3cccc(F)c3)no2)CC1c1ccccc1 (centres undefined)
    0.0, -4.6, i, 0.725, -1.5, ., 1.0
- COc1ccc(OCCC(=O)NCc2ccccc2)cc1
    -0.8, 5.2, ., 0.656, 0.3, -16.0, 4.3

# Compound activity from PubChem.
